Screening results (PubChem)
LANA-H2B inh: blocks KSHV LANA binding to histone H2A/H2B; Q9QR71; cell-free LANA-H2A/H2B peptide, fluorescence polarization; inhibition, % (concentration not given with the values); actives 0.6% (n = 320,000); AID 2629; in the data active means inhibition mostly above about 10%, no sharp cut-off; inactive means mostly below about 6.7%;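 further: stock transfer was 7.5 nL into about 10 µL; 0% = median of vehicle wells and 100% = median of positive control wells; one replicate is shown; the record names a cut of 25% in any replicate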
Target sequence (Q9QR71 whole entry, looked up): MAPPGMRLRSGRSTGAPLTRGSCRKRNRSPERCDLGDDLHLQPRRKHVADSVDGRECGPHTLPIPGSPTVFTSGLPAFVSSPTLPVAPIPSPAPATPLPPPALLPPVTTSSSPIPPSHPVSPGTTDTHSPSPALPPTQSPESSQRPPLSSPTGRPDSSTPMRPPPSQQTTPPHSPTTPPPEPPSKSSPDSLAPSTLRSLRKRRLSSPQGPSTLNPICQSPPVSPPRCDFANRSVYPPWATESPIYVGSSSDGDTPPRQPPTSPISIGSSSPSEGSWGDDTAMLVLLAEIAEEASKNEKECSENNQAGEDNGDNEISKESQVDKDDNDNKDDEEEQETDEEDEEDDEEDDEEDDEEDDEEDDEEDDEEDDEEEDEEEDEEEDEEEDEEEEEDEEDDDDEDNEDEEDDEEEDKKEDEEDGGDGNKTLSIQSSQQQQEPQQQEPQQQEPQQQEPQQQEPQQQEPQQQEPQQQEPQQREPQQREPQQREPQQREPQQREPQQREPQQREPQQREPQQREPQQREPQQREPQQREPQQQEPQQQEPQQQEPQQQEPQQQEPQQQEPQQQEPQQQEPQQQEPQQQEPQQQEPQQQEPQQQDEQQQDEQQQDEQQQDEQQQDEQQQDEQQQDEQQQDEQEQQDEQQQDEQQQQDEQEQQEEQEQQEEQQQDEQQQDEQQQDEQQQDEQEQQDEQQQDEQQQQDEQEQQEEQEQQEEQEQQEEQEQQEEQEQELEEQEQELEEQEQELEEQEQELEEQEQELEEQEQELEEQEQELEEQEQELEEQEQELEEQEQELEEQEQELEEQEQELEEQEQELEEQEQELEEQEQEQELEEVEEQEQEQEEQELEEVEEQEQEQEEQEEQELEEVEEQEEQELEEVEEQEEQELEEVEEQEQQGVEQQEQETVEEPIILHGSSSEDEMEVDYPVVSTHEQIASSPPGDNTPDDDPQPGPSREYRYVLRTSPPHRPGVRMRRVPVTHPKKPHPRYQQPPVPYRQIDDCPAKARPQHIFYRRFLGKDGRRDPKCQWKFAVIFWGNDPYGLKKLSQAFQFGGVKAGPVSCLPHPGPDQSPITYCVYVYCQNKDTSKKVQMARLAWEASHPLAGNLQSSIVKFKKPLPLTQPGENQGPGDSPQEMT
Bfl-1 A1 inh: inhibitors of the anti-apoptotic protein A1, read as caspase activation; actives 0.066% (n = 330,000); caspase activation, % (test concentration not listed); MEF A1-2A-BIM cells, Caspase-Glo 3/7 luminescence, 3 h; percent of clofoctol response, vehicle zero; AID 2462;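 active means over half of replicate activation scores above 10%, or exactly half above 10 with the replicate mean above 10; inconclusive means replicate mean below 10 yet half the replicates above 10; inactive means over half of replicates below 10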;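 further: wells of about 30 µL received 50 nL stock; many hits fall short of the cut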
T cruzi repl: T. cruzi replication inhibition; T. cruzi beta-gal in NIH3T3, luminescence, 90 h; actives 1.4% (n = 300,000); inhibition, % (concentration not given with the values);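 active means mean inhibition across valid replicates above about 55%, limit read from the data; inconclusive means mean below that limit but half or more replicates reach it; inactive means mean below it, under half of replicates reach it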;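 further: signal also drops with host cell toxicity which is not excluded here; 0% = plate median of DMSO wells and 100% = zero luminescence signal; higher percent means less beta-gal luminescence so fewer parasites; stock transfer was 50 nL into about 50 µL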
ALR inh: human ALR oxidase inhibition via reduced H2O2 | P55789 | purified ALR, DTT oxidation, H2O2 HRP-luminol luminescence | inhibition, % (no concentration beside the values) | actives 3.8% (n = 290,000) | AID 485317;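 active means mean and each replicate at 75% or more; inconclusive means only one of the two met; inactive means neither met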;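 further: stock transfer was 7.5 nL into about 7.5 µL; 0% = neutral wells and 100% = wells with inactivated enzyme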
B2AR ag: human beta-2 adrenergic receptor agonism by FAP | actives 0.43% (n = 340,000) | response, % (test concentration not listed) | AID 504454 | P07550 | Am2.2-beta2AR cells, FAP receptor internalization, flow cytometry; reference of the scale not given here;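 active means response above a set limit, near 3 SD of response in nonfluorescent compounds, cut at about 42% in these data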;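 further: stock transfer was 100 nL into about 11 µL; a reference agonist was the positive control; negative values mostly stem from fluorescent compounds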
Calb FLC: C. albicans growth modulation with fluconazole; C. albicans CaCi-2 (fluconazole-resistant clinical isolate) + fluconazole, Alamar Blue growth, 48 h; growth inhibition, % (no concentration beside the values); actives 0.57% (n = 300,000); AID 1979;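 active means most replicates above 75%; inconclusive means exactly half above 75%; inactive means most below 75%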;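 further: all wells also contain fluconazole at 8 µg/ml as a sub-toxic cotreatment; 0% = median of DMSO wells and 100% = median of geldanamycin control wells; wells of about 8 µL received 7.5 nL stock; the first replicate is given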
Beta cell apopt: beta cell apoptosis inhibition. INS-1E cytokine-induced death, ATP luminescence, 48 h; percent of positive-control rescue, neutral wells zero. protection from apoptosis, % (test concentration not listed). actives 0.8% (n = 300,000);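 active means all replicates at 75% or more, or half of them and the mean; inconclusive means half reach 75% but not the mean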;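 further: 0% = cytokine-treated negative control wells and 100% = positive control rescue; higher means more ATP so stronger rescue from cytokine killing; wells of about 40 µL received 100 nL stock; the first replicate is given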
rRNA inh HTS: inhibitors of bacterial rRNA selective over humanized ribosomes. actives 1.6% (n = 350,000). GFP signal change (wild-type ribosome), % (test concentration not listed). AID 720706. E. coli WT GFP vs humanized-ribosome RFP mutants, fluorescence, 24 h; active compounds read low; DMSO median 0, no signal -100;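 active means significant combined selectivity score with lowered wild-type GFP, culture density cut under 30%, mutant RFP and density less affected; inactive means any of these conditions unmet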; further: one replicate is shown; some compounds called inactive have numbers as strong as hits
rRNA inh HTS OD600: second read-out of rRNA inh HTS, no call of its own (marks repeat the call); OD600 change, %; measured here: OD600 growth;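 optical density of the mix in the first replicate; 0 = DMSO median and -100 = no signal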
rRNA inh HTS RFP: second read-out of rRNA inh HTS, no call of its own (marks repeat the call); RFP signal change, %; measured here: RFP humanized mutant strains;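 first replicate; 0 = DMSO median and -100 = no signal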
Numbers without * were called inactive; u = inconclusive; x = not tested or not shown.

SMILES	LANA-H2B inh	Bfl-1 A1 inh	T cruzi repl	ALR inh	B2AR ag	Calb FLC	Beta cell apopt	rRNA inh HTS	rRNA inh HTS OD600	rRNA inh HTS RFP
COc1ccc(-c2cc(C(=O)OC(C)C(=O)Nc3c(C)n(C)n(-c4ccccc4)c3=O)c3ccccc3n2)cc1 (configuration not stated)	2.0	0.2	23	x	-13	12	-4	x	x	x
O=C(/C=C/c1ccco1)Nc1ccc(Oc2ccccc2)cc1	3.8	-1.9	6	3	-8	33	5	x	x	x
COc1ccc(S(=O)(=O)N(C)CC(=O)Nc2ccc(C)cc2)cc1OC	1.5	-0.1	13	-9	5	1	-4	-6	-1	0.3
Cc1ccc(C(=O)CSc2cc(C)[nH]c(=O)n2)cc1	-0.2	-0.5	6	99*	5	-21	x	5	13	1.9
O=C(c1ccc(Cl)c([N+](=O)[O-])c1)N(Cc1ccccc1)C1CCS(=O)(=O)C1 (configuration not stated)	-2.4	0.1	4	-2	13	-3	2	x	x	x
Cc1ccc(S(=O)(=O)N2CCOCC2)cc1NC(=O)CNCC1CCCCC1	2.7	-0.5	26	-32	-17	-15	-19	1	3	1.6
COc1ccc(C=NC(CO)C(O)c2ccc([N+](=O)[O-])cc2)cc1 (configuration not stated)	0.7	1.0	-4	-2	8	-5	-11	x	x	x
CCc1noc2c1/C(=N\O)CC(c1ccccc1)C2 (configuration not stated)	3.1	0.7	-8	1	2	-27	4	x	x	x
C=CCn1c(N)c(S(=O)(=O)c2cccs2)c2nc3ccccc3nc21	2.0	-0.2	1	7	26	-2	-7	x	x	x
Cc1ccc(C2C(C#N)=C(N)Oc3c2oc(CO)cc3=O)o1 (configuration not stated)	0.3	-1.3	-5	-10	0	18	-4	x	x	x
Cc1cccc(NC2=NC3(CCCCC3)N=C(N)N2)c1C	5.5	1.1	16	-4	3	0	-6	x	x	x
O=C(CN1CCCc2ccccc21)N/N=C/c1ccccc1O	-4.0	-0.6	5	26	-4	7	99*	x	x	x
Cc1cc(NC(=O)CCC(=O)N(CCC(C)C)C(C(=O)NC2CCCC2)c2ccccc2C)no1 (configuration not stated)	7.5	0.2	8	-4	-8	1	2	2	3	3.4
C(=N\Nc1nc(N2CCCCC2)nc(N2CCCCC2)n1)/c1c[nH]c2ccccc12	-3.4	-0.1	19	9	5	-31	1	3	-7	-5.5
CCN(CC)CC(=O)NCC1(c2ccccc2)CCOCC1	1.1	0.0	6	3	5	1	0	x	x	x
COC(=O)C1C(O)=C(C(C)=Nc2cccc3ccccc23)C(=O)CC1(C)C (configuration not stated)	3.7	0.4	6	4	3	16	-5	15	4	2.7
CC[n+]1c(/C=C/Nc2ccccc2)oc2ccccc21	-1.6	-0.4	18	7	-961	5	18	x	x	x
COc1ccc(C2CC(c3ccccc3)=NN2C(=O)c2ccc(F)cc2)cc1 (configuration not stated)	-2.0	0.3	-7	x	10	3	0	29	11	3.4
CC1CCCC(NC(=O)CN2C(=O)NC(C)(c3cc(F)ccc3F)C2=O)C1C (configuration not stated)	-4.7	1.3	x	0	1	x	1	7	-3	-1.3
CC(=O)c1c(C)[nH]c(C(=O)CSc2nnc(-c3ccccc3)n2Cc2ccc3c(c2)OCO3)c1C	3.9	0.3	-21	-20	-6	9	-3	x	x	x
CC(=O)c1ccc(Nc2cc(C)nc3c(C)cc(C)cc23)cc1	-3.8	0.0	21	-11	-6	-7	77*	24	2	2.4
COc1ccc(CC(=O)Nc2ccc(C(=O)Nc3nccs3)cc2)cc1OC	x	x	3	x	-11	25	x	-1	10	-0.6
COc1ccc(C(=O)/C=C/c2ccc(N(C)C)cc2)c(OC)c1	-27	0.3	-1	x	-43	-20	-8	6	-21	-2.0
CC(C)(C)NC(=O)CCC1COc2ccccc2O1 (configuration not stated)	-1.6	1.5	-15	-21	6	-2	0	x	x	x
Cc1cc(S(=O)(=O)N2CCOCC2)ccc1OCC(=O)NCCCn1ccnc1	-6.0	0.6	-6	5	5	21	-2	2	0	-2.9
N#Cc1c(Cn2cncn2)nc(=O)n(-c2ccc(Cl)cc2)c1N	-1.2	0.0	-3	0	5	1	2	5	0	-1.6
O=C(CCc1c[nH]c2ccccc12)NCc1ccco1	4.7	0.1	-4	5	3	20	-3	11	14	-0.4
COc1cc(/C=N/O)cc(Br)c1OCc1ccc(Cl)cc1	2.8	0.1	-6	-13	-9	3	1	-22	-66	3.7
CCOC(=O)Nc1ccc2c(c1)N(C(=O)CNC)c1ccccc1CC2	-1.5	-0.7	-9	-31	1	-30	-3	9	6	-0.7
O=C(C1CCCCC1)N(CCN1CCCC1)c1nc2ccccc2s1	4.8	-1.2	57*	1	-1	-3	x	4	10	11
Cc1c(C(=O)NCCN(C)C)oc2ccc(S(=O)(=O)N3CCC4(CC3)OCCO4)cc12	-1.7	0.5	17	-7	-3	-9	-2	4	15	2.0
Cc1ccc(Cl)cc1N1CCN(C(=O)C2CCC(=O)N(C3CCCCCC3)C2)CC1 (configuration not stated)	-1.1	0.2	37	1	13	8	56	9	4	-0.3
CCOC(=O)N1CCN(Cc2nc3c(c(=O)n(C)c(=O)n3C)n2Cc2ccc(F)cc2)CC1	3.5	0.5	-1	1	-21	-2	-1	4	3	-8.3
O=C(c1ccco1)N1CCN(C(=O)c2ccc(-c3ccc(Cl)cc3)o2)CC1	3.6	0.2	x	-2	6	x	-2	-38	-47	-11
CCOC(=O)/C=c1\s/c(=C\c2ccc3c(c2)OCCO3)c(=O)n1CC(=O)NCC1CCCO1 (configuration not stated)	3.1	0.4	-2	-3	6	26	-10	x	x	x
Fc1ccc(-c2cnn3c(-c4cccs4)ccnc23)cc1	x	x	29	x	-3	-2	x	11	22	1.6
O=C(COc1ccc(Cl)cc1)NCCS(=O)(=O)N1CCN(c2ccc(F)cc2)CC1	2.6	-0.9	11	-2	-1	1	1	1	11	0.4
CC(C)(O)C(=O)N=Nc1c(O)[nH]c2ccccc12	3.8	1.9	3	-3	-18	11	3	10	12	0.0
Cc1cccc(OCc2nnc(SCC(=O)c3cccs3)n2C)c1C	-0.1	0.6	3	-5	-2	5	-7	-45	-65	-4.6
OCCC1CN(Cc2nc3c(s2)CCCC3)CCN1Cc1ccsc1 (configuration not stated)	0.8	0.0	4	-3	-10	-7	-11	-1	1	4.3
COc1ccc(-n2cnnc2SCC(=O)NC2CCCCC2)cc1	-1.3	0.7	x	-6	1	x	-6	x	x	x
Cc1nc2ccc(C(C(F)(F)F)(C(F)(F)F)C(F)(F)F)cc2[nH]1	-5.4	0.7	50	-6	-2	-18	5	x	x	x
Cc1ccccc1C(=O)NCCNC(=O)c1ccccn1	-1.7	-0.7	-10	-6	3	22	-4	4	9	-1.6
O=C(c1cnn2c(C(F)(F)F)cc(-c3ccco3)nc12)N1CCCCCC1	0.6	-1.0	2	-5	7	56	-3	x	x	x
CC(=O)c1ccc(OCCCC(=O)NC2CCCCC2C)cc1 (configuration not stated)	-1.2	0.4	-3	-7	0	-6	4	-2	-9	-2.0
CSc1ccccc1C(=O)NC1CCCC1	3.5	0.4	-6	-3	-2	25	-11	19	19	0.6
CS(=O)(=O)c1nc(S(=O)(=O)c2ccc(Cl)cc2)c(NCCCN2CCOCC2)s1	4.4	0.9	3	-2	-6	-6	-13	8	10	0.3
CC(=O)Nc1ccc(C(=O)OCC(=O)N(c2ccccc2)C2CCS(=O)(=O)C2)cc1 (configuration not stated)	-1.6	-0.7	x	1	-3	x	1	0	7	-2.9
CC(C)C(=O)Nc1ccccc1C(=O)OCC(=O)c1ccc2c(c1)OCCO2	-4.9	0.1	14	-3	-5	7	-4	x	x	x
O=C(NC12CC3CC(CC(C3)C1)C2)C12CC3CC(C1)CC(n1cnc(Cl)n1)(C3)C2	-5.1	-0.5	17	-19	-2	-24	-3	x	x	x
COc1ccc(CN2C(=NC(=O)C3CC3)SC3CS(=O)(=O)CC32)cc1 (configuration not stated)	2.7	-1.9	-4	-2	5	2	-1	4	7	0.9
CCOC(=O)c1sc2nc(C)c([N+](=O)[O-])c(COC)c2c1N	-0.8	0.6	7	-20	-22	-1	x	1	7	-1.5
O=C1CSC(=NC(=O)c2ccccc2)N1	-1.1	0.0	-18	0	9	6	-7	6	3	2.0
COc1ccc(Cl)cc1NC(=O)CN(C)CC(=O)Nc1c(C)n(C)n(-c2ccccc2)c1=O	-8.2	-0.3	x	-3	-3	x	0	-1	-1	-3.0
CC(=O)c1cccc(N(CC(=O)O)S(C)(=O)=O)c1	-1.1	0.4	-4	2	-1	-5	x	x	x	x
Cc1ccc(CNc2nc(-c3cccs3)nc3ccccc23)cc1	-3.1	-1.4	34	-9	0	6	6	-15	-55	5.7
O=C(c1ccc([N+](=O)[O-])cc1)n1nc(-c2ccccc2)nc1NCc1ccc(F)cc1	-1.5	0.2	5	21	14	-3	0	x	x	x
O=C(CSCc1ccc([N+](=O)[O-])cc1)NCCSCc1ccccc1	-4.0	-0.2	-4	-10	7	-9	-14	x	x	x
O=C(CCOc1ccccc1)Nc1cccc(S(=O)(=O)Nc2ccccc2Cl)c1	-4.0	-0.9	-6	0	-8	24	-7	-17	-28	-8.4
CC1(C)NC(=O)N(CC(O)CN(c2ccccc2)S(=O)(=O)c2ccc([N+](=O)[O-])cc2)C1=O (configuration not stated)	5.1	0.6	25	-14	5	-2	-4	-16	1	-1.8
Following part
SMILES	LANA-H2B inh	Bfl-1 A1 inh	T cruzi repl	ALR inh	B2AR ag	Calb FLC	Beta cell apopt	rRNA inh HTS	rRNA inh HTS OD600	rRNA inh HTS RFP
O=C(CN(C(=O)Cn1nnc(-c2cccs2)n1)c1cnc2ccccc2c1)NCC1CCCO1 (configuration not stated)	-0.2	0.3	2	-27	-7	4	-4	x	x	x
c1ccc(OCCSc2nnc3sc4ccccc4n23)cc1	1.8	-7.2	7	4	0	3	x	-41*	-21*	1.1*
O=C1CCC(=O)N1c1nc2nc(-c3ccccc3)cc(-c3ccccc3)n2n1	-0.2	0.0	-6	-10	-24	1	-10	x	x	x
CC(=O)c1ccc(NC(=S)N2CC(C)CC(C)C2)cc1 (configuration not stated)	-2.7	-0.1	2	0	3	6	-1	-2	-6	-0.4
Cc1cc(SCC(=O)Nc2cccnc2Cl)nc2ccccc12	0.7	1.1	-13	-3	-3	u	-1	-9	-4	-2.8
CCc1nnc(NS(=O)(=O)c2ccc(NC(=S)NC(=O)c3ccc(OC)cc3)cc2)s1	x	-0.8	9	x	1	7	-4	x	x	x
COCCNc1oc(-c2ccc(C)cc2)nc1C#N	-2.2	-0.5	-5	9	1	-2	3	x	x	x
Cn1c(N2CCOCC2)nc2c1c(=O)n(Cc1ccc(Cl)c(Cl)c1)c(=O)n2C	-3.5	-0.4	x	-1	-2	x	x	x	x	x
CN(C)C(=S)Nc1ccc(Cl)cc1	0.2	0.4	-13	4	2	2	-4	-14	-14	-3.1

Not all compounds are listed, so the mix of outcomes need not match the whole.
